# Assay outcomes deposited in PubChem by Broad Institute.
# Yeast UUG start = modulators of yeast start codon fidelity, primary screen, whole organism, S. cerevisiae, single point, plate reader. S. cerevisiae UUG-firefly luciferase reporter, luminescence/redox ratio. activity score, % at 18.7 µM. actives 0.13% (n = 350,000);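 active means replicate mean at a twofold rise or more, about +100% in these data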;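 further: firefly luciferase made from a UUG start codon reports start codon fidelity; reporter light over untreated wells divided by growth signal over untreated wells; some hits fall short of that in this replicate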
# An asterisk follows results filed as active. A portion of the library, so the mix of outcomes need not match the whole.
mol | Yeast UUG start
C[C@H](CO)N1C[C@H](C)[C@H](CN(C)S(=O)(=O)c2ccc(Cl)cc2)Oc2ccc(NC(=O)NC3CCCCC3)cc2C1=O | 6
O=C(C[C@H]1CC[C@@H]2[C@H](COC[C@@H](O)CN2Cc2ccc(F)cc2)O1)NCc1ccccc1Cl | -4
C[C@@H]1CN([C@@H](C)CO)C(=O)c2cc(NC(=O)CCC(F)(F)F)ccc2O[C@@H]1CN(C)S(=O)(=O)c1cn(C)cn1 | 30
CC(C)NC(=O)N1[C@H](CO)[C@@H]2c3ccccc3NC[C@@H]21 | 12
O=C(C[C@H]1CC[C@@H]2[C@H](COC[C@@H](O)CN2C(=O)Nc2ccc(Cl)c(Cl)c2)O1)NCc1ccc(F)cc1 | 18
O=C(c1ccccc1F)N1CC[C@@H]2[C@@H](CO)Nc3ccc(C#Cc4ccc(F)cc4)cc3[C@@H]21 | -8
CN(C)C(=O)c1cccc(-c2ccc([C@H]3[C@@H](CO)N4CCCCN(C(=O)C5CCC5)C[C@H]34)cc2)c1 | -14
CCC(=O)N1CC[C@@H]2[C@H](CO)Nc3ccc(-c4cccc(C#N)c4)cc3[C@@H]21 | 13
CCC(=O)N1[C@@H](CO)[C@@H]2c3ccccc3N(C(=O)Nc3ccccc3Cl)C[C@@H]21 | -7
C[C@H]1CN([C@@H](C)CO)C(=O)c2cccc(N(C)C)c2O[C@H]1CN(C)C(=O)Nc1ccccc1 | -9

# (list continues)
mol | Yeast UUG start
C[C@H](CO)N1C[C@H](C)[C@H](CN(C)CC2CCCCC2)Oc2ccc(NC(=O)Nc3cccc4ccccc34)cc2C1=O | 0
O=C(CC(F)(F)F)N1C[C@@H]2[C@H](c3ccccc31)[C@@H](CO)N2C(=O)c1ccncc1 | 93
Cc1ccc(-c2ccc3c(c2)O[C@H](CN(C)Cc2ccc(F)cc2)[C@@H](C)CN([C@H](C)CO)S3(=O)=O)cc1 | 11
O=C(C[C@@H]1C[C@@H]2c3cc(NC(=O)CC4CC4)ccc3O[C@@H]2[C@@H](CO)O1)NCc1cccc(F)c1 | 11
O=C(C[C@H]1CC[C@@H]2NC[C@@H](O)COC[C@H]2O1)Nc1ccccc1 | -1
O=C(C[C@@H]1CC[C@@H]2[C@H](COC[C@H](O)CN2Cc2ccc(Cl)cc2)O1)Nc1nccs1 | -5
C[C@H](CO)N1C[C@H](C)[C@H](CN(C)Cc2ccc(C(=O)Nc3ccccc3N)cc2)Oc2c(NC(=O)C3CCOCC3)cccc2C1=O | 4
COCC(=O)N1[C@@H]2CNc3ccccc3[C@@H]2[C@@H]1CO | -14
COc1ccccc1CN1[C@@H](CO)[C@@H]2c3ccccc3N(C(=O)c3ccc(F)cc3)C[C@@H]21 | 0
Cc1cccc(S(=O)(=O)N2C[C@H]3[C@@H](c4ccccc42)[C@H](CO)N3C(=O)CC2CC2)c1 | 1

# More records follow:
mol | Yeast UUG start
CCC(=O)N1[C@H](CO)[C@@H](c2ccc(-c3cccc(F)c3)cc2)[C@H]1CNC(C)=O | 6
CN1c2ccc(C3=CCCCC3)cc2[C@H]2[C@H](CCN2C(=O)C2CCCC2)[C@@H]1CO | 3
C[C@@H]1CN([C@H](C)CO)C(=O)c2cccc(NC(=O)c3ccc(-c4nccs4)cc3)c2O[C@@H]1CN(C)C(=O)NC1CCCCC1 | 10
CN1c2ccc(-c3cccc(F)c3)cc2[C@@H]2[C@@H](CCN2C(=O)Cc2ccccc2)[C@H]1CO | 2
Cc1cccc(S(=O)(=O)N2CC[C@@H]3[C@H]2c2cc(-c4ccccc4F)ccc2N(C)[C@H]3CO)c1 | -19
C[C@H]1CN([C@@H](C)CO)C(=O)c2cc(NS(=O)(=O)c3ccc(F)cc3)ccc2O[C@H]1CN(C)Cc1ccc(-c2ccccc2)cc1 | 6
CCC(=O)Nc1ccc2c(c1)OC[C@H](C)N(C(=O)C1CCC1)C[C@@H](C)[C@@H](OC)CN(C)C2=O | 3
COCC(=O)Nc1ccc2c(c1)C(=O)N(C)C[C@@H](OC)[C@H](C)CN(Cc1ccccc1OC)[C@H](C)CO2 | 3
CNC[C@@H]1Oc2ccc(NS(=O)(=O)c3ccc(Cl)cc3)cc2CC(=O)N([C@@H](C)CO)C[C@H]1C | 7
COc1ccc(S(=O)(=O)Nc2ccc3c(c2)C(=O)N([C@@H](C)CO)C[C@H](C)[C@@H](CN(C)Cc2ccc(C(F)(F)F)cc2)O3)cc1 | 10

# More structures
mol | Yeast UUG start
COc1cccc(-c2ccc([C@H]3[C@H]4CN(CC5CC5)CCCCN4[C@H]3CO)cc2)c1 | 14
Cc1noc(C)c1S(=O)(=O)N(C)C[C@H]1Oc2ccc(NS(=O)(=O)c3cn(C)cn3)cc2C(=O)N([C@@H](C)CO)C[C@H]1C | 1
O=C(CC1CC1)N1CC[C@@H]2[C@H]1c1cc(-c3ccccc3)ccc1N[C@@H]2CO | -3
Cn1cnc(S(=O)(=O)N2CC[C@@H]3[C@H]2c2cc(C#Cc4cccc(F)c4)ccc2N[C@@H]3CO)c1 | -9
Cc1ccc(S(=O)(=O)Nc2ccc3c(c2)CC(=O)N([C@H](C)CO)C[C@@H](C)[C@@H](CN(C)C(=O)NC(C)C)O3)cc1 | 0
C[C@H](CO)N1C[C@H](C)[C@@H](CN(C)C(=O)Nc2ccc(F)cc2)Oc2ccc(NC(=O)CCC(F)(F)F)cc2CC1=O | -1
C[C@@H]1CN([C@H](C)CO)C(=O)c2cccc(NC(=O)Nc3ccccc3)c2O[C@H]1CN(C)CC1CC1 | -13
Cc1ccc(S(=O)(=O)Nc2ccc3c(c2)C(=O)N([C@H](C)CO)C[C@@H](C)[C@@H](CN(C)S(=O)(=O)c2cccs2)O3)cc1 | -3
C[C@@H]1CN([C@H](C)CO)C(=O)Cc2cc(NC(=O)NC3CCCCC3)ccc2O[C@H]1CN(C)Cc1ccc(C(=O)O)cc1 | -6
COc1ccc(C(=O)N2C[C@H]3[C@@H](c4ccccc42)[C@@H](CO)N3Cc2ccccc2Cl)cc1 | 5

# Other structures
mol | Yeast UUG start
COCC(=O)N1C[C@@H](C)[C@H](OC)CN(C)C(=O)c2ccc(NC(=O)NC(C)C)cc2OC[C@@H]1C | 1
CC(C)NC(=O)Nc1ccc2c(c1)C(=O)N([C@H](C)CO)C[C@@H](C)[C@H](CN(C)S(=O)(=O)c1ccc(Cl)cc1)O2 | 8
COc1ccc(C#Cc2ccc3c(c2)[C@@H]2[C@@H](CCN2S(=O)(=O)c2ccccc2C)[C@H](CO)N3C)cc1 | -15
COc1ccc(CN(C)C[C@H]2Oc3c(NC(=O)Nc4c(C)noc4C)cccc3C(=O)N([C@H](C)CO)C[C@H]2C)cc1 | -18
C[C@H](CO)N1C[C@H](C)[C@H](CN(C)C(=O)NC2CCCCC2)Oc2c(NC(=O)c3nc4ccccc4s3)cccc2C1=O | 1
C[C@@H]1CN([C@@H](C)CO)C(=O)c2cccc(NS(=O)(=O)c3ccc(Cl)cc3)c2O[C@@H]1CN(C)C | 0
O=C(c1ccccc1F)N1CC[C@@H]2[C@H]1c1cc(C#Cc3ccccc3F)ccc1N[C@@H]2CO | -1
COCC(=O)Nc1ccc2c(c1)OC[C@H](C)N(C)C[C@@H](C)[C@@H](OC)CN(C)C2=O | -10
COc1ccccc1C(=O)N1C[C@H]2[C@@H](c3ccccc31)[C@@H](CO)N2Cc1ccc(F)cc1 | -13
C[C@H](CO)N1C[C@H](C)[C@@H](CN(C)S(=O)(=O)c2cn(C)cn2)Oc2ccc(NC(=O)Cc3cn(C)c4ccccc34)cc2C1=O | 4

# Part of the list above in order of formula weight, highest first:
mol | Yeast UUG start
C[C@H](CO)N1C[C@H](C)[C@@H](CN(C)S(=O)(=O)c2cn(C)cn2)Oc2ccc(NC(=O)Cc3cn(C)c4ccccc34)cc2C1=O | 4
COCC(=O)N1C[C@@H](C)[C@H](OC)CN(C)C(=O)c2ccc(NC(=O)NC(C)C)cc2OC[C@@H]1C | 1
O=C(c1ccccc1F)N1CC[C@@H]2[C@H]1c1cc(C#Cc3ccccc3F)ccc1N[C@@H]2CO | -1

# (next part)
mol | Yeast UUG start
CCC(=O)NC[C@@H]1[C@@H](c2ccc(-c3ccccc3)cc2)[C@@H](CO)N1C(=O)C1CC1 | -5
N#Cc1cccc(-c2ccc([C@H]3[C@H](CO)N4CCCCN(C(=O)Nc5ccccc5)C[C@@H]34)cc2)c1 | -9
COc1ccccc1C#Cc1ccc([C@H]2[C@@H](CO)N3CCCCN(C(=O)C4CCC4)C[C@@H]23)cc1 | 12
CCC(=O)N1C[C@@H](C)[C@@H](OC)CN(C)C(=O)c2cc(NS(C)(=O)=O)ccc2OC[C@@H]1C | -8
COc1ccccc1C#Cc1ccc([C@H]2[C@H]3CN(C(=O)C4CC4)CCCCN3[C@H]2CO)cc1 | 25
OC[C@@H]1[C@H](c2ccc(-c3cccc(F)c3)cc2)[C@@H]2CN(CCC(F)(F)F)CCCCN12 | 10
CO[C@@H]1CN(C)C(=O)c2cc(NC(=O)C3CC3)ccc2OC[C@H](C)N(C(=O)CN(C)C)C[C@H]1C | -18
COc1ccccc1-c1ccc2c(c1)[C@@H]1[C@@H](CCN1S(=O)(=O)c1cccc(C)c1)[C@H](CO)N2 | -4
O=C(Cc1ccccc1)N1CC[C@@H]2[C@H](CO)Nc3ccc(-c4ccccc4)cc3[C@@H]21 | -12
C[C@H](O)C#Cc1ccc([C@H]2[C@@H](CO)N3CCCCN(CC4CCOCC4)C[C@@H]23)cc1 | -6

# In another format: entries from further up.
Yeast UUG start	Molecule
-8	CCC(=O)N1C[C@@H](C)[C@@H](OC)CN(C)C(=O)c2cc(NS(C)(=O)=O)ccc2OC[C@@H]1C
25	COc1ccccc1C#Cc1ccc([C@H]2[C@H]3CN(C(=O)C4CC4)CCCCN3[C@H]2CO)cc1
10	OC[C@@H]1[C@H](c2ccc(-c3cccc(F)c3)cc2)[C@@H]2CN(CCC(F)(F)F)CCCCN12
-18	CO[C@@H]1CN(C)C(=O)c2cc(NC(=O)C3CC3)ccc2OC[C@H](C)N(C(=O)CN(C)C)C[C@H]1C
-4	COc1ccccc1-c1ccc2c(c1)[C@@H]1[C@@H](CCN1S(=O)(=O)c1cccc(C)c1)[C@H](CO)N2
-12	O=C(Cc1ccccc1)N1CC[C@@H]2[C@H](CO)Nc3ccc(-c4ccccc4)cc3[C@@H]21

# Later entries.
mol | Yeast UUG start
COCC(=O)Nc1ccc2c(c1)C(=O)N(C)C[C@H](OC)[C@@H](C)CN(Cc1cccnc1)[C@H](C)CO2 | -8
CCCNC(=O)C[C@H]1CC[C@@H]2[C@@H](COc3ccc(NC(=O)c4cccc(Cl)c4)cc3C(=O)N2C)O1 | -2
OC[C@H]1Nc2ccc(C#Cc3ccc(F)cc3)cc2[C@@H]2[C@H]1CCN2Cc1nccs1 | -16
CC(C)NC(=O)Nc1ccc2c(c1)CC(=O)N([C@H](C)CO)C[C@H](C)[C@H](CN(C)S(=O)(=O)c1ccc(F)cc1)O2 | 9
CN(C[C@H]1[C@H](c2ccccc2)[C@H](CO)N1Cc1ccccn1)S(C)(=O)=O | -6
C[C@H](CO)N1C[C@H](C)[C@H](CN(C)S(=O)(=O)c2ccccc2)Oc2ccc(NC(=O)CCC(F)(F)F)cc2CC1=O | 0
CC(C)NC(=O)N1[C@@H](CO)[C@H](c2ccccc2)[C@@H]1CNC(=O)CN(C)C | 14
CO[C@H]1CN(C)C(=O)c2cc(NC(=O)C3CCC3)ccc2OC[C@@H](C)N(CC2CCCCC2)C[C@@H]1C | -7
C[C@H]1CN([C@@H](C)CO)C(=O)c2cccc(NC(=O)Nc3ccc(C(F)(F)F)cc3)c2O[C@@H]1CN(C)S(=O)(=O)c1cccs1 | -6
CC(=O)N(C)C[C@H]1OCc2ccccc2-c2c(n(C)c3ccccc23)C(=O)N([C@H](C)CO)C[C@H]1C | -6

# (listing goes on)
mol | Yeast UUG start
C[C@H](CO)N1C[C@H](C)[C@@H](CN(C)C(=O)Nc2ccccc2)OCc2ccccc2-c2ccccc2C1=O | 2
CO[C@H]1CN(C)C(=O)c2ccc(NC(=O)C3CCCCC3)cc2OC[C@H](C)NC[C@H]1C | -12
O=C(c1cccc(F)c1)N1C[C@@H]2[C@H](c3ccccc31)[C@H](CO)N2C(=O)c1cccc(F)c1 | -2
C[C@H]1CN([C@@H](C)CO)C(=O)c2cc(NS(C)(=O)=O)ccc2O[C@H]1CN(C)S(=O)(=O)c1ccc(F)cc1 | 5
C[C@@H]1CN([C@H](C)CO)C(=O)c2cc(NS(=O)(=O)c3ccc(Cl)cc3)ccc2O[C@H]1CN(C)Cc1ccc(Oc2ccccc2)cc1 | 3
Cc1ccc(S(=O)(=O)Nc2ccc3c(c2)C(=O)N([C@H](C)CO)C[C@H](C)[C@@H](CN(C)C(=O)NC2CCCCC2)O3)cc1 | 2
C[C@@H]1CN([C@@H](C)CO)C(=O)c2cccc(NS(=O)(=O)c3ccccc3)c2O[C@H]1CN(C)C(=O)Nc1ccc(F)cc1 | 8
C[C@H]1CN([C@@H](C)CO)C(=O)c2cc(NS(=O)(=O)c3cccs3)ccc2O[C@H]1CN(C)Cc1ccc(Oc2ccccc2)cc1 | 9
